High-throughput results as filed in PubChem BioAssay.
VDR inh = Inhibitors of the vitamin D receptor (VDR): qHTS; actives 0.93% (n = 400,000); Potency, µM, for inactives: max response, negative = inhibition, usual class: inhibitors; VDR-SRC2-3 peptide fluorescence polarization, 2 h; Vitamin D3 receptor (Homo sapiens), P11473; active means well fitted inhibition curve with a large enough effect; inconclusive means small, poorly fitted or top-dose-only effect, or another doubt; inactive means no such curve, though single readings can be large or run the other way; further: series mostly up to about 120 µM
Target sequence (P11473 whole entry, looked up): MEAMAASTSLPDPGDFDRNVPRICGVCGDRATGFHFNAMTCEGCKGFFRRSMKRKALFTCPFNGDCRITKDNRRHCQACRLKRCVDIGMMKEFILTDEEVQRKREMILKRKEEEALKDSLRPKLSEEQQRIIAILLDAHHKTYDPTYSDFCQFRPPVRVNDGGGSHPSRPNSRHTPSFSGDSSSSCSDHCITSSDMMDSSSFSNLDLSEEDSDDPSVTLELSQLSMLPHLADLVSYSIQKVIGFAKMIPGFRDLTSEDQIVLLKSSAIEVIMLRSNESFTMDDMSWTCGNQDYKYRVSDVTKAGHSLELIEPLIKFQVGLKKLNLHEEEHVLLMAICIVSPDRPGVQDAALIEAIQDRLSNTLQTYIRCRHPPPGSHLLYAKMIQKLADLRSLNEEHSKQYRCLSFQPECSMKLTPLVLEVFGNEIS
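Fluorescence polarization assay of small-molecule disruption of VDR binding to coregulator peptide SRC2-3. Compounds and controls pin-transferred, then read after 2 h incubation at ambient room temperature.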
Starred values were filed as active, the others as inactive; ? = inconclusive; & = joins results of further samples; ! = not active in a repeat. On the % scale 0 is the no-effect control and ±100 the full control effect; potency means the concentration at half of the fitted maximal effect.

SMILES	VDR inh
COc1cc(-c2nnc(COC(=O)c3nn(CC(C)C)c(=O)c4ccccc34)o2)cc(OC)c1OC	7%
O=C(NCC1CCCN1S(=O)(=O)c1cccs1)c1ccc(F)c(F)c1 (stereo not drawn)	-3%
CCCN(C(=O)Nc1cn(CC(C)C)c(=O)c2ccccc12)c1ccc(F)cc1	4%
C#CCOCCOCCOCCNc1nc(N2CCN(C(=O)CCCCCCCCCCNC(=O)[C@@H](CCSC)n3cc(CCO)nn3)CC2)nc(N2CCN(C(=O)CCCCCCCCCCNC(=O)[C@@H]([C@H](C)O)n3cc(C)nn3)CC2)n1	2%
COCCNC(=O)c1cn(C)c2ccccc2c1=O	18%
O=C(NCC1CCCO1)c1onc(CSc2cccc(Cl)c2)c1C(=O)O (stereo not drawn)	-10%
O=C(O)c1ccc(Nc2ccc(Cl)c(Cl)c2)c([N+](=O)[O-])c1	10%
CC(OC(=O)c1ccc(Cl)c([N+](=O)[O-])c1)C(=O)N1CCN(Cc2ccccc2)CC1 (stereo not drawn)	-17%
Cc1cccc2sc(N(CCCN(C)C)C(=O)c3cc4ccccc4oc3=O)nc12	-6%
COc1ccc(/C=C2\CCc3ccccc3C2=O)cc1O	-2%

Some of these compounds in order of the VDR inh value, descending:
Molecule,VDR inh
COCCNC(=O)c1cn(C)c2ccccc2c1=O,18%
COc1cc(-c2nnc(COC(=O)c3nn(CC(C)C)c(=O)c4ccccc34)o2)cc(OC)c1OC,7%
CCCN(C(=O)Nc1cn(CC(C)C)c(=O)c2ccccc12)c1ccc(F)cc1,4%
C#CCOCCOCCOCCNc1nc(N2CCN(C(=O)CCCCCCCCCCNC(=O)[C@@H](CCSC)n3cc(CCO)nn3)CC2)nc(N2CCN(C(=O)CCCCCCCCCCNC(=O)[C@@H]([C@H](C)O)n3cc(C)nn3)CC2)n1,2%
COc1ccc(/C=C2\CCc3ccccc3C2=O)cc1O,-2%
O=C(NCC1CCCO1)c1onc(CSc2cccc(Cl)c2)c1C(=O)O (stereo not drawn),-10%

The list goes on:
SMILES	VDR inh
O=C(COc1ccc(F)cc1)NCC1(N2CCCCC2)CCCCC1	9%
Cc1ccc(Cl)cc1N(CC(=O)NC(C)c1ccccc1)S(C)(=O)=O (stereo not drawn)	-5%
N#Cc1c2n(c(=O)[nH]c1=O)CCCCC2	15%
COC(=O)c1sc(NC(=O)COc2ccccc2C)nc1C	6%
Cc1cc(N2CCN(C(=O)Nc3ccccc3C#N)CC2)c2ccccc2n1	22%
O=S(=O)(c1cccc(C(F)(F)F)c1)N1CCN(c2nnnn2-c2ccccc2)CC1	3%
Cc1ccn2cc(-c3cccc(S(=O)(=O)N4CC(C)OC(C)C4)c3)nc2c1 (stereo not drawn)	20%
O=C(O)CCCCCCCCc1cn(Cc2ccc(C(=O)c3ccccc3)cc2)nn1	1%
CN(C)C(=O)c1ccc2c(c1)N(CC(=O)NCc1ccccc1Cl)C(=O)C1CCCCN21 (stereo not drawn)	-2%
O=[N+]([O-])c1cccnc1N1CCC(c2cc(-c3ccc(Cl)cc3Cl)n[nH]2)CC1	-3%
CCC(C(=O)NCc1ccccc1)n1ncn2c(cc3occc32)c1=O (stereo not drawn)	1%
O=c1c(-c2ccccc2)c(O)nc(SCCN2CCOCC2)n1-c1ccccc1	-1%
CCOC(=O)c1sc(NC(=O)CCc2ccccc2)nc1C	-14%
O=C(Nc1cccc(Cl)c1Cl)C1CC(=O)N(c2ccc(Br)cc2)C1 (stereo not drawn)	7%
Cc1nnc(NC(=O)CCN2C(=O)/C(=C\c3ccccc3)SC2=S)s1	18%
O=C(CNS(=O)(=O)c1ccccc1)N1CCN(c2ccccc2)CC1	-20%
NNC(=O)c1nc[nH]c1C(=O)Nc1ccccc1[N+](=O)[O-]	-3%
CCOc1ccc(N(C(=O)c2snc(C(N)=O)c2N)C(C(=O)NC2CCCC2)C(C)C)cc1 (stereo not drawn)	-1%
O=C(Nc1nc2n(n1)C(c1ccccc1)C=C(c1ccc(Cl)cc1)N2)c1ccco1 (stereo not drawn)	-6%
O=C(Nc1ccccc1F)c1oc2ccccc2c1NC(=O)C12CC3CC(CC(C3)C1)C2	-1%
CN1CCN(c2ncncc2-c2ccccc2C(F)(F)F)CC1	5%
Cc1nc2ccc(S(=O)(=O)NCC(=O)N3CCc4ccccc43)cc2s1	13%
O=C(/C=C/Sc1ccccc1)c1ccccc1	-86%
O=S(=O)(c1ccc2nc(COc3ccc(Cl)cc3Cl)[nH]c2c1)N1CCOCC1	25%
COc1cccc(-c2onc3ccc(C(=O)/C=C/N(C)C)cc23)c1	-1%
CCOC(=O)C1=C(c2ccccc2)NC(N)=NC1c1ccc(OCc2ccc(C(=O)OC)cc2)cc1 (stereo not drawn)	-7%
CCOC(=O)c1nn(-c2cccc(OC)c2)c(-c2ccccc2)c1C(=O)c1ccccc1	-2%
O=c1[nH]c2ccccc2[nH]c1=O	-6%
C#CCCOC(=O)N1C2=NC(C(=O)OC)=C(C(=O)OC)[C@@H]3N(CC=C)c4ccccc4[C@]23C[C@H]1C(=O)OC	1%
COc1cccc2cc(C(=O)CC3(O)C(=O)N(Cc4ccccc4)c4ccccc43)c(=O)oc12 (stereo not drawn)	-2%
O=C(NCC(=O)N1CCN(Cc2c(F)cccc2Cl)CC1)c1cccc(Cl)c1	-23%
COc1ccc(CCC(C)NC(=O)CCc2ccccc2)c(OC)c1 (stereo not drawn)	-8%
Cn1c(=NC(=O)c2ccco2)sc2ccccc21	-11%
Cc1cc(C)c(-n2c(SCC(=O)N3CCOCC3)n[nH]c2=O)c(C)c1	5%
CCCNC(=O)C1Cc2cc(S(=O)(=O)N3CCCC3)ccc2N1C(C)=O (stereo not drawn)	?
O=C(Nc1ccccn1)c1cccnc1	2%
Cc1cccc(C)c1OCC(=O)Nc1nnc(C2CCCO2)s1 (stereo not drawn)	2%
O=C(Nc1ccc2ccccc2c1)c1cccc([N+](=O)[O-])c1	-26%
Cc1c(N(C)C(=O)C23CC4CC(CC(C4)C2)C3)c(=O)n(-c2ccccc2)n1C	6%
COC(=O)c1ccc(C(=O)OC)c(NC(=O)CN2CCN(c3ccccc3)CC2)c1	-5%
COc1ccc(C2C(C(C)=O)=C(C)N=c3s/c(=C\c4ccc5c(c4)OCO5)c(=O)n32)c(OC)c1 (stereo not drawn)	-17%
Cc1onc(C(=O)NC2CCCCC2)c1[N+](=O)[O-]	-11%
COc1ccc(NC(=O)c2sc3ncnc(N4CCN(c5ccccn5)CC4)c3c2C)cc1Cl	-6%
CCOc1ccccc1NC(=O)c1ccc2c(c1)CCN2S(=O)(=O)c1ccc(C)cc1	8%
COC(C(=O)Nc1ccc(C(N)=O)cc1)c1ccccc1 (stereo not drawn)	-13%
Cc1oc(-c2ccccc2)nc1Cn1c(SCc2cccc(C(F)(F)F)c2)nc2cccnc21	3%
Cc1nc2ccc(NC(=S)NCCCO)cc2nc1C	-5%
COc1cc(CNc2ccc3[nH]c(=O)[nH]c3c2)ccc1OCc1ccccc1F	-10%&10%
O=C(O)/C(=C/c1ccco1)NC(=O)c1ccccc1	-12%
O=C(CN(Cc1ccco1)C(=O)c1ccc(Cl)cc1)Nc1ccc(Cl)c(Cl)c1	8%
More results.
SMILES	VDR inh
O=C(NCc1cccc(C(F)(F)F)c1)C1CC2Cn3c(nc4ccccc43)C2N1Cc1ccccc1 (stereo not drawn)	-19%
Cc1ccc(-c2c(CN3CCN(c4cccc(C(F)(F)F)c4)CC3)csc2C)cc1	-1%
O=C(Nc1ccccc1Cl)N1CCN(c2ccc3nncn3n2)CC1	5%
CC1=NN(c2nc(-c3ccc(Cl)cc3)cs2)C(=O)C1	-13%
O=[N+]([O-])c1c(NCc2ccco2)ccc2nonc12	0%
Cc1cc(C)nc(Sc2ncnc3sc4c(c23)CCC4)n1	-14%
O=C(/C=C/c1ccccc1)Nc1ccc2c(c1)C(=O)NC2=O	-9%
CN(C)C(N)=NCCC[C@H](N)C(=O)O	0%&8%
CCOc1ccccc1Nc1sc(C(=O)c2ccccc2)c(N)c1C(=O)Nc1ccccc1	3%
O=C(OC(C(=O)NC1CCCC1)c1ccccc1F)c1ccco1 (stereo not drawn)	-16%

Given with each value named: part of the list above.
Cc1ccn2cc(-c3cccc(S(=O)(=O)N4CC(C)OC(C)C4)c3)nc2c1 (stereo not drawn)
- VDR inh: 20%

O=C(O)CCCCCCCCc1cn(Cc2ccc(C(=O)c3ccccc3)cc2)nn1
- VDR inh: 1%

Carrying on:
SMILES	VDR inh
CC(=O)Nc1ccc(S(=O)(=O)NN=CCCc2ccccc2)cc1	6%
O=C1C2CCCN2C(=O)N1CCN1CCN(c2ccccc2)CC1 (stereo not drawn)	-13%
CCN(C(=O)Nc1ccccc1)c1ccccc1	-10%
CC(C)(C)c1ccc(C(=O)N2CCCN(C(=O)c3ccc(C(C)(C)C)cc3)CC2)cc1	1%
Cc1ccc2c(c1)-c1c(cnn1CC(=O)N1CCN(c3cc(Cl)ccc3C)CC1)CO2	3%
COc1ccc2c(c1OC)C(=O)OC2Nc1ccccn1 (stereo not drawn)	7%
Cc1cc(NC(=O)CCCOc2ccc(Cl)cc2Cl)no1	0%
O=C(NC(=S)NCc1ccccc1)c1ccccc1[N+](=O)[O-]	7%
CC1Cc2ccccc2N1C(=O)CCS(=O)(=O)c1ccc2c(c1)NC(=O)CS2 (stereo not drawn)	?
O=C(COc1ccc2oc3c(c2c1)CCCC3)Nc1ccc(Cl)cc1	-20%

A few values from the list.
For VDR inh, COc1ccc2c(c1OC)C(=O)OC2Nc1ccccn1 (stereo not drawn) has 7%
For VDR inh, CCN(C(=O)Nc1ccccc1)c1ccccc1 has -10%
For VDR inh, O=C1C2CCCN2C(=O)N1CCN1CCN(c2ccccc2)CC1 (stereo not drawn) has -13%
For VDR inh, O=C(NC(=S)NCc1ccccc1)c1ccccc1[N+](=O)[O-] has 7%
For VDR inh, O=C(COc1ccc2oc3c(c2c1)CCCC3)Nc1ccc(Cl)cc1 has -20%
For VDR inh, CC(C)(C)c1ccc(C(=O)N2CCCN(C(=O)c3ccc(C(C)(C)C)cc3)CC2)cc1 has 1%
For VDR inh, Cc1ccc2c(c1)-c1c(cnn1CC(=O)N1CCN(c3cc(Cl)ccc3C)CC1)CO2 has 3%

Later entries:
SMILES	VDR inh
N#Cc1ccccc1Sc1ccccc1C(=O)NCC(c1ccco1)N1CCCC1 (stereo not drawn)	-10%
O=C(CSc1cn(CC(=O)N2CCCC2)c2ccccc12)Nc1cc(C(F)(F)F)ccc1Cl	2%
CCCc1cc(C(=O)Nc2ccc(C(=O)c3ccc(F)cc3)cc2)n(C)n1	3%
Fc1cccc(/C=N/Nc2nc3ccccc3[nH]2)c1	-11%
CC1=CC2=NC(=O)CC(C)(C(=O)N(CC(=O)NC3CCCC3)c3ccccc3C)N2C=C1 (stereo not drawn)	-20%
CC(=O)N(Cc1ccco1)c1nc(C(=O)Nc2ccc(Cl)cc2)c(C)s1	-21%
Cc1noc(C(=O)Nc2cccc(Cl)c2)c1Cl	-17%
CC(=C/C(=O)O)/C=C/c1cccs1	5%
Cc1cccc(N(C(=O)Cn2nnc3ccccc32)C(C(=O)NCc2ccco2)c2ccncc2)c1 (stereo not drawn)	6%
c1ccc(CNc2ncnc3[nH]ncc23)cc1	-6%&-12%
Cc1ccc(/C=N/NC(=O)CNC(=O)COc2ccccc2)o1	-10%
C[C@@H](C(=O)Nc1ccccc1N1CCOCC1)N1C(=O)C2CC=CCC2C1=O (stereo partly drawn)	-5%
CC(=O)c1cc(NC(=O)c2ccc(Cl)cc2)c(=O)oc1/C=C/N(C)C	-27%
CCOc1ccc(S(=O)(=O)NCCC(=O)Nc2cccc(C(=O)OC)c2)cc1	19%
O=C(O)c1cccc(S(=O)(=O)N2CCCC2)c1	2%
CCOc1ccc2c(c1)C(C)=CC(C)(C)N2	45µM*!
COc1ccc2c(c1)c1c(c(=O)n(-c3ccccc3)c(=O)n1CC(=O)NCCC1=CCCCC1)n2C	0%
Cc1cnc(NC(=O)c2ccc3c(c2)C(=O)N(Cc2ccco2)C3=O)s1	-1%
COc1ccc(-c2cc(C(F)(F)F)nc(NC3CCCC3)n2)cc1OC	23%
O=C(O)c1ccc(-c2nc3scc(-c4ccccc4)c3c(=O)[nH]2)cc1	-3%
CN(c1ccccc1)S(=O)(=O)c1ccc(NC(=O)c2cc(=O)c3ccccc3o2)cc1	-14%
CCN(CC)C(=O)c1ccccc1NS(=O)(=O)c1ccc(OC)c(C(=O)N2CCOCC2)c1	-24%
COc1ccc(N2CCN(C(=O)Cn3ncc4c([nH]c5ccccc54)c3=O)CC2)cc1	-4%
COC(=O)Cc1ccc(OC(=O)CCS(=O)(=O)c2ccc(C)cc2)cc1	-17%
COc1cccc2cc(C(=O)NCC3CCCO3)c(=O)oc12 (stereo not drawn)	-4%
CS(=O)(=O)c1ccc(-c2cccc(NC(=O)c3ccco3)c2)nn1	-6%
CC(C)(C)C(=O)Nc1cccc(-c2nnc(-c3cccc(NC(=O)C(C)(C)C)c3)o2)c1	-11%
Cn1nc(C(=O)N2CCCC2)c2ccccc2c1=O	-10%
CC(C)c1ccc(/C=C/C(=O)NCc2ccc(S(N)(=O)=O)cc2)cc1	12%
O=C(CSc1nnc(NC(=O)c2ccco2)s1)Nc1ccccc1F	8%
CC(C)C[C@@H](CC#N)N1CCN(Cc2ccccc2)CCC1=O	-14%
COc1ccc(N(CC(=O)N2CCc3ccccc32)S(=O)(=O)c2c(C)noc2C)cc1	-6%
COc1cccc(/C=N/NC(=O)NC2CCCCC2)c1O	-12%
CCn1c(COc2ccccc2C)nnc1SCC(=O)Nc1cc(C)on1	9%
O=C(Cn1ccc(C(F)(F)F)n1)N=Nc1c(O)[nH]c2ccc(Br)cc12	8%
CC(=O)Nc1ccc(S(=O)(=O)Nc2nc3cc4c(cc3nc2Cl)OCCO4)cc1	-7%
O=C(COc1cccc(C(F)(F)F)c1)Nc1cccc(S(=O)(=O)NC2=NCCCCC2)c1	11%
CCOC(=O)c1cc(OCC(=O)NC(C)C(C)C)cc(C(=O)OCC)c1 (stereo not drawn)	1%
COC(=O)c1ccccc1NC(=O)NCc1ccccc1	18%
COc1ccc(Nc2cc(C(=O)NCCCN3CCOCC3)c3ccccc3n2)cc1	1%

Some of the compounds tested; count on the stated rates, not on these rows.
